VDR inh: blocks the human vitamin D receptor; P11473; VDR-SRC2-3 peptide fluorescence polarization, 2 h; Potency, µM, inactives show max response, negative = inhibition, most hits filed as inhibitors; actives 0.93% (n = 400,000); AID 504847; active = well fitted inhibition curve with a large enough effect; inconclusive = small, poorly fitted or top-dose-only effect, or another doubt; inactive = no such curve, though single readings can be large or run the other way; also: series mostly up to about 120 µM
Target sequence (P11473 whole entry, looked up): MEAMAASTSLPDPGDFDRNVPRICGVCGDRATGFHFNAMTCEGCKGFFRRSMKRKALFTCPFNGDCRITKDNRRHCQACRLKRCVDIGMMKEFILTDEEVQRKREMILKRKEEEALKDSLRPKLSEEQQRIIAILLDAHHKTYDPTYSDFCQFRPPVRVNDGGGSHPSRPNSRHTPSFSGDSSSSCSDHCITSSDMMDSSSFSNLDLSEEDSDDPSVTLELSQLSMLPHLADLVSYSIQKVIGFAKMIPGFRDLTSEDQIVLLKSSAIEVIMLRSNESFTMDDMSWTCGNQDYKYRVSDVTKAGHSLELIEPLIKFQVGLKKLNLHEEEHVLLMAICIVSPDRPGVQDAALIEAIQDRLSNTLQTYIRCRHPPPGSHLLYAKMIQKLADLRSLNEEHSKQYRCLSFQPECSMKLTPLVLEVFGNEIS
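Two reagent solutions held at 4 deg C in the dark were dispensed, compounds pinned at 23 nl, and the mixture incubated 2 h at room temperature. Read-out: fluorescence polarization of VDR–SRC2-3 peptide binding.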
* = called active by the depositor; u = inconclusive; & = joins results of further samples. % is scaled to controls: 0 for no effect and ±100 for the full control effect; potency is read from the fitted curve at half-maximal effect. The list is partial. The share of hits here may be higher or lower than overall.

SMILES	VDR inh
CC(=O)c1ccc(OCC(O)CN2CCN(CCO)CC2)cc1 (stereo not given)	15%
CCc1ccc(NC(=O)CSc2ccc(-c3ccccn3)nn2)cc1	-15%&0%
Clc1ccc(-c2nnc(-c3ccccc3)nc2-c2c[nH]c3ccccc23)cc1	-4%
CC(=O)N1C(C)(C)CC(=NOC(=O)c2ccccc2)CC1(C)C	8%
CCCOc1ccc(NC(=O)OC2CCN(C)CC2)cc1	-12%
CCN1CCN(C(=O)C(C)Oc2ccc(S(=O)(=O)N3CCCC3)cc2C(N)=O)CC1 (stereo not given)	4%
CCc1n[nH]c(=S)n1/N=C/c1ccc(-c2ccc(Br)cc2)o1	-23%
COc1ccc2[nH]c3c(c2c1)CCN1C(=O)C(CC(=O)NCCCn2ccnc2)C[C@H](C(=O)N2CCOCC2)[C@@]31CCC1CCCC1 (stereo not given in full)	3%
Clc1ccc(-c2csc(-c3nc(-c4ccc(Br)s4)cs3)n2)cc1	-11%
COc1ccc(C)cc1NS(=O)(=O)c1cc2c3c(c1)CC(=O)N3CCC2	14%
O=C(CCNC(=O)c1ccccc1Cl)Nc1ccc(Cl)c(C(F)(F)F)c1	9%
NC(=O)COC(=O)c1ccc(C(=O)C(=O)c2ccccc2)cc1	-4%
CN1CCN(C(=O)/C(=C/c2ccccc2F)NC(=O)c2ccccc2)CC1	20%
CCn1cc([C@@H]2C[C@H]3CN(Cc4cccc(Cl)c4)C(=O)[C@]34CCCN24)cn1	7%
CCC(NC(=O)Nc1nccs1)(C(F)(F)F)C(F)(F)F	-8%
COc1ccc(OC)c(C(=O)NC(CC(N)=O)c2ccc(N3CCN(c4ccc(F)cc4)CC3)c([N+](=O)[O-])c2)c1 (stereo not given)	u
CC1(NC(=O)NCc2ccco2)CCS(=O)(=O)C1 (stereo not given)	-20%
CCOc1ccc(NC(=O)CN(c2ccc(OC)c(OC)c2)S(=O)(=O)c2ccc(C)cc2)cc1	-1%
CCn1cc(C(=O)O)c(=O)c2cc(F)c(N3CCN(C(=S)Nc4ccccc4OC)CC3)cc21	-9%
O=[N+]([O-])c1cc(Cl)cc(/C=N\Nc2ccccn2)c1O	u
Cc1cc(C(=O)Nc2ccc(Cl)cc2)c2ccccc2n1	5%
CC(=O)Cn1ncc(N2CCOCC2)c(Cl)c1=O	-7%
COc1ccc(-c2nc(C#N)c(NCC3CCCO3)o2)cc1OC (stereo not given)	3%
CCCCCN1C(=O)/C(=C/c2c(N3CCc4ccccc4C3)nc3ccccn3c2=O)SC1=S	5%
CC(C)N(Cc1ccccc1)C(=S)NCCN1CCOCC1	6%

Arranged by molar mass (rising): some entries from above
SMILES	VDR inh
O=[N+]([O-])c1cc(Cl)cc(/C=N\Nc2ccccn2)c1O	u
CCc1ccc(NC(=O)CSc2ccc(-c3ccccn3)nn2)cc1	-15%&0%
CN1CCN(C(=O)/C(=C/c2ccccc2F)NC(=O)c2ccccc2)CC1	20%
CCc1n[nH]c(=S)n1/N=C/c1ccc(-c2ccc(Br)cc2)o1	-23%
CCn1cc([C@@H]2C[C@H]3CN(Cc4cccc(Cl)c4)C(=O)[C@]34CCCN24)cn1	7%
O=C(CCNC(=O)c1ccccc1Cl)Nc1ccc(Cl)c(C(F)(F)F)c1	9%
CCCCCN1C(=O)/C(=C/c2c(N3CCc4ccccc4C3)nc3ccccn3c2=O)SC1=S	5%

Later entries.
SMILES	VDR inh
COc1ccc2c(c1)cc(C(=O)N[C@@H](Cc1ccccc1)C(=O)O)n2C	-5%
COc1ccc(OC)c(C(=O)c2coc3ccc(OCC(=O)O)cc23)c1	-15%
Cc1[nH]n(-c2ccccc2)c(=O)c1C=Nc1ccc(S(N)(=O)=O)cc1	2%
Cc1ccc(S(=O)(=O)NC(=O)NCCc2ccccc2)cc1	-6%
CCN(CC)S(=O)(=O)c1ccc(N2CCOCC2)c(NS(=O)(=O)c2cccs2)c1	-18%
O=C(Nc1c(-c2ccccc2)nc2ccc(Cl)cn12)c1cccs1	u
CC(C)(C)OC(=O)NCCc1nnc(SCC(=O)Nc2ccc(Br)cc2)o1	10%
COc1cccc(C2CC(c3ccccc3Cl)n3nc(N)nc3N2)c1 (stereo not given)	5%
COCCCNC(=O)C1CCCN(S(=O)(=O)c2ccc3c(c2)oc(=O)n3C)C1 (stereo not given)	-6%
COC(=O)c1c(-c2c(Cl)cccc2Cl)noc1C(=O)NNC(=O)N(C)C	8%
COc1ccc(CN2c3c(Br)cccc3C(=O)CS2(=O)=O)cc1	-2%
COc1cc(-c2nnc(SCC(=O)c3ccc(C)cc3)o2)cc(OC)c1OC	6%
CC1=C(C#N)C(c2cccnc2)C2=C(CC(c3ccc(Cl)cc3)CC2=O)N1 (stereo not given)	-9%
CCOC(=O)N1CCN(C(=O)c2sc3nc(-c4ccc(F)cc4)cn3c2C)CC1	-23%
COc1ccc(OCc2nnc(SCC(N)=O)n2-c2ccccc2OC)cc1	-1%
CC12C=CC(=O)C=C1C(F)CC1C3CCC(O)(C(=O)CO)C3(C)CC(O)C12F (stereo not given)	2%
Cc1cccc(NS(=O)(=O)c2ccc(C(=O)N3CCCCCC3)cc2)c1C	2%
COc1ccc(C(=O)ON=C2CCN(C)CC2)cc1	-10%
C=CCc1cc(C(=O)N2CCCCC2)ccc1O	-6%
O=C(Nc1cccc(C(F)(F)F)c1)c1ccc(-n2cncn2)nc1	5%
CCCCn1c(-c2ccoc2C)n[nH]c1=S	-3%
Cc1ccccc1OCCNc1cc(N2CC(C)NC(C)C2)ccc1[N+](=O)[O-] (stereo not given)	-9%
CC1CN(Cc2ccccn2)CCC1=O (stereo not given)	2%
O=C(CCNC(=O)c1ccccc1Cl)NCc1ccco1	-7%
Cc1cccc(CC(=O)Nc2ccc3nc(N4CCC(C)CC4)cc(C)c3c2)c1	1%
SMILES	VDR inh
O=C(N[C@@H](Cc1ccccc1)C(=O)Nc1ccc(F)cc1)C1CCNCC1	-16%
COc1cc2c(cc1OC)CN(C(=O)CCNC(=O)c1ccc(Br)cc1)CC2	3%
N[C@H](C(=O)O)[C@H]1C[C@H]1C(=O)O	-2%
O=C(COC(=O)/C=C/c1cccc(Cl)c1)Nc1ccc2[nH]c(=O)[nH]c2c1	-24%
O=C(CSc1n[nH]c(=O)[nH]c1=O)Nc1ccc2c(c1)C(=O)c1ccccc1C2=O	u
CC1=N/C(=C\c2ccc([N+](=O)[O-])cc2)C(=O)N1c1cc(Cl)ccc1C	-20%
CC(C)CCn1c(=O)c2ccccc2n2c(CN(C)Cc3ccccc3)nnc12	-26%
O=C(NCc1ccccc1F)C1CCCN1C(=O)Nc1cccc(F)c1 (stereo not given)	8%
CC(=O)c1cnc(-c2cccc(Cl)c2)s1	-17%
O=C(COc1ccc(S(=O)(=O)NC2CCCC2)cc1)N1CCCCCC1	-5%
CCC(=O)c1ccccc1OCCCCn1cncn1	-10%
O=C(c1ccccn1)c1conc1C(=O)c1ccc(Br)cc1	-11%
Cc1ccc(-c2noc(CN(C(=O)Cc3ccccc3)C(C)C)n2)cc1	5%
COc1ccc(CNc2nc(-c3ccccc3)nn2C(=O)c2ccc([N+](=O)[O-])cc2)cc1	-2%
CN1CCN(C(CNC(=O)c2ccc(F)cc2)c2ccc3c(c2)OCO3)CC1 (stereo not given)	5%
CN(C)c1ccc(C(CNS(=O)(=O)c2ccc([N+](=O)[O-])cc2)N2CCOCC2)cc1 (stereo not given)	19%
CNC(=O)[C@H]1O[C@@H](n2cnc3c(NCc4cccc(I)c4)ncnc32)[C@H](O)[C@@H]1O	-1%&2%&-2%&2%
COc1ccccc1NC(=O)c1ccc2nc(-c3ccccc3)c(-c3ccccc3)nc2c1	-1%
COc1ccc(-c2n[nH]c3c2CN(C(=O)c2ccc(OC)c(OC)c2)CC3)cc1	-13%
Cc1cc(C)cc(-n2nnc(-c3nsc(NC(=O)c4ccccc4Cl)n3)c2C)c1	16%
C/C(=N\NC(=O)c1c(C)nc2ccccn12)c1ccc(O)cc1O	-2%
Cc1ccc(NC(=O)C(=O)NCC2CCCN2S(=O)(=O)c2cccs2)c(C)c1 (stereo not given)	-8%
CCCc1[nH]nc2c1C(c1cccc(OC(=O)c3ccco3)c1)C(C#N)=C(N)O2 (stereo not given)	1%
Cc1c(Cl)cccc1NC(=O)C(=O)NCC(c1cccnc1)N1CCN(c2ccccc2)CC1 (stereo not given)	9%
CCOc1ccc(OCC)c(NC(=O)CN(c2ccc(C)cc2)S(=O)(=O)c2c(C)noc2C)c1	16%
SMILES	VDR inh
CCOC(=O)c1c(C)[nH]c(C(=O)OCC(=O)N2CCCC2=O)c1C	0%
Cc1cc(C)cc(C(=O)Nc2cccc(-c3nc4ncccc4o3)c2C)c1	-8%
C/C=C(\C)C(=O)O[C@H]1CC(C)=C2C(=O)C=C(C)C2[C@@H]2OC(=O)[C@@](C)(OC(=O)C=C(C)C)C21 (stereo not given in full)	u
O=c1[nH]c(-c2ccccc2F)nc2c1sc(=S)n2Cc1ccccc1	0%
CC(C)(C)NC(=O)c1ccccc1NC(=O)C1CC(=O)N(C2CCCCC2)C1 (stereo not given)	u
CCn1ccnc1CN1CCN(CCC(C)C)C(CCO)C1 (stereo not given)	0%
COc1ccc(NC(=O)CC(NC(C)c2ccccc2)C(=O)O)cc1 (stereo not given)	-9%
CCN(c1ccc(NC(=O)c2ccc(Cl)nc2)cc1)C(C)C	1%
CC1CCN(S(=O)(=O)c2cc(C(=O)NCc3ccc(N(C)C)cc3)n(C)c2)CC1	-3%
O=C(c1cc(S(=O)(=O)N2CCCCC2)c(Cl)cc1N1CCOCC1)N1CCOCC1	-6%
Cn1cccc1/C=C1\SC(=S)N(CC(=O)O)C1=O	0%
O=C(Nc1ccc([N+](=O)[O-])cc1)c1ccc(S(=O)(=O)N2CCCC2)cc1	25%
O=C(NCc1ccccc1)c1onc(CSc2ccc(F)cc2)c1C(=O)NCCCN1CCOCC1	-8%
CC[C@](N)(CCC(=O)O)C(=O)O	-5%&3%
CC(C)C[C@H]1CN([C@@H](CC(C)C)CN2CCC[C@@H]2CN2C(=O)C(=O)NC[C@@H]2Cc2ccccc2)C(=O)C(=O)N1CC1CCCCC1	-9%
Cc1cccc(C)c1NC(=O)Cn1nnc(-c2ccc(N3CCOCC3)cc2)n1	22%
CCCOc1ccc(NC(=O)CC2C(=O)N(CC)C(=S)N2CCCN2CCN(Cc3ccccc3)CC2)cc1 (stereo not given)	27%
Cc1ccc(-n2c(=O)c3c(c4cc(C)ccc4n3C)n(CC(=O)c3ccc(Cl)cc3)c2=O)cc1	7%
O=C1c2ccccc2NC(c2ccccc2)N1NS(=O)(=O)c1ccccc1 (stereo not given)	-6%
NC(C(=O)O)C1ON=C(Cl)C1O (stereo not given)	-14%
CCOC(=O)C(NC(=O)c1ccccc1)(N1CCCC1=O)C(F)(F)F (stereo not given)	-12%
Cc1noc(NC(=O)c2ccccc2)c1C#N	6%
c1ccc(CCC2CCCCN2Cc2nc(-c3ccc4c(c3)OCO4)no2)nc1 (stereo not given)	2%
O=C(CCC(=O)N1CCN(C2CCCCC2)CC1)Nc1nnc(C(F)(F)F)s1	-3%
CCN(CC(=O)NC(C)C)C(=O)[C@H](C)NC(=O)c1ccc(Br)cc1	-12%

Reprinted at random: 4 compounds from above
SMILES	VDR inh
COC(=O)c1c(-c2c(Cl)cccc2Cl)noc1C(=O)NNC(=O)N(C)C	8%
O=c1[nH]c(-c2ccccc2F)nc2c1sc(=S)n2Cc1ccccc1	0%
CC(=O)c1ccc(OCC(O)CN2CCN(CCO)CC2)cc1 (stereo not given)	15%
COc1ccc(OCc2nnc(SCC(N)=O)n2-c2ccccc2OC)cc1	-1%

Further compounds
SMILES	VDR inh
CCCCNC(=O)COC(=O)c1cc(F)c(F)cc1Cl	9%
Cc1noc(/C=C/c2cccs2)c1S(=O)(=O)N1CCC(C(=O)NCc2ccccc2Cl)CC1	10%
Cc1ccc(Oc2nc3ccccn3c(=O)c2/C=C(\C#N)C(=O)Nc2c(C)n(C)n(-c3ccccc3)c2=O)cc1	u
O=C(Nc1ccccc1)Nc1cc([N+](=O)[O-])ccc1F	-12%
CCOC(=O)CC(NC(=O)CCc1c(C)nc2c(c1C)c(=O)n(C)c(=O)n2C)c1ccc(OCC)c(OC)c1 (stereo not given)	-10%
COc1ccc(C2=NOC3(CC(=O)N(c4ccc5ccccc5c4)C3=O)C2)c(OC)c1 (stereo not given)	1%
CON=C1CCN(c2ncc(C(F)(F)F)cc2Cl)CC1	-5%
Cn1c(N)c(C(=O)COC(=O)c2ccc3ccccc3c2)c(=O)n(C)c1=O	-6%
c1ccc2c(CN3CCOCC3)csc2c1	-26%
CCN(CC)S(=O)(=O)c1cccc(C(=O)NC(C(=O)NCCc2ccccn2)C(C)C)c1 (stereo not given)	-4%
CCCOc1ccc(C(=O)Nc2ccc(NC(=O)c3ccc(Br)cc3)cc2)cc1	-1%
CSc1ccccc1NC(=O)COC(=O)c1cnc(C)cn1	-6%
COC(=O)C/C=N/N=C1/NC(=O)/C(=C/C(=O)O)S1	-12%
O=C(N=C1SC2CS(=O)(=O)CC2N1c1ccccc1)C1CCCCC1 (stereo not given)	-14%
Cc1ccc(C(CNS(=O)(=O)c2ccc(Br)cc2)N2CCN(C)CC2)cc1 (stereo not given)	-4%
CC1(C)CC(=O)C2=C(C1)N(N1CCOCC1)C(N)=C(C#N)C2c1cccs1 (stereo not given)	2%
CCCn1c(SCC(=O)Nc2ccc(NC(C)=O)cc2)nc2c1c(=O)n(C)c(=O)n2C	-5%
N#Cc1ccc(NC(=O)CN2C(=O)NC(Cc3ccccc3)C2=O)cc1 (stereo not given)	5%

Screens: PubChem BioAssay, National Center for Advancing Translational Sciences (NCATS)
